Bioassay records as filed in PubChem.
Measles inh: inhibitors of measles virus growth in infected cells; infected Vero cells, GFP fluorescence, 64 h; stronger effect = lower value; z-score (no concentration beside the values); 33,000 compounds, 0.1% hits; AID 745;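 active means z-score under -3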;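 further: score is relative to mean and SD of the compound wells of a plate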
Active calls of the source: *. Not all compounds are listed. The share of hits here may be higher or lower than overall.

What do the screens show for `O=C(Nc1cccc2c1CCCC2)C1CCN(S(=O)(=O)c2cccc3nonc23)CC1`?
Measles inh: -0.91

What do the screens show for `COc1ccc(OCC(=O)Nc2cc(-c3nc4ccccc4s3)ccc2C)cc1`?
Measles inh: 1.4
